Sa growth 42C: S. aureus growth inhibition at 42 and 30 °C, primary screen, LtaS inhibitor project, RN4220, two temperatures | OD600, 20 h, 42 °C; stronger effect = lower value | relative growth, % (concentration not given with the values) | 170,000 tested, 0.53% active | AID 720641, 2013;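 active = growth at 42 °C up to 50% and 20 or more points under that at 30 °C, or under 10% at both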;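 note: 300 nL library stock went into each well; scaled to the means of positive and negative controls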
GIV-Gai inh: inhibitors of GIV peptide binding to Galpha-i3, primary screen, biochemical, fluorescence polarization, FITC-GIV GBA peptide, rat Galphai3; AID 1224905, 2016; percent of control (FP), % (concentration not given with the values); Guanine nucleotide-binding protein G(i) subunit alpha-3 (Rattus norvegicus), P08753; 90 min; stronger effect = lower value; scaled: aluminum fluoride 0%, vehicle 100%; 210,000 tested, 0.42% active;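 active = replicate mean at 85% of control or lower, very high polarization wells dropped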;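 note: wells of about 15 µL received 100 nL stock; the first replicate is given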
Target sequence (P08753 whole entry, looked up): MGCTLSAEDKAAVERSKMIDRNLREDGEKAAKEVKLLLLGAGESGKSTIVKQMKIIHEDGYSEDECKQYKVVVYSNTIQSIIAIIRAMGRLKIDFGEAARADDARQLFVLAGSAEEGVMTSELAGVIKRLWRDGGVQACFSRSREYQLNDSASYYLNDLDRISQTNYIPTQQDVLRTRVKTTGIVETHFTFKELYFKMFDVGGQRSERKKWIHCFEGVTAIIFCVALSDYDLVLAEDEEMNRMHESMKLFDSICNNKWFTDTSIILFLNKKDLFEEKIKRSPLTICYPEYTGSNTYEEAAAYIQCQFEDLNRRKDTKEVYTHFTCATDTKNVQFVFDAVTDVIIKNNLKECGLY
HCMV NEC inh: inhibitors of HCMV UL50-UL53 interaction, biochemical, HTRF | HCMV UL50-UL53 nuclear egress complex (human cytomegalovirus) | normalized percent inhibition | inhibition, % (test concentration not listed) | 190,000 tested, 0.15% active;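 active = both replicates at 50% or more, plus weaker picks with an unusually low signal ratio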;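 note: stock transfer was 100 nL into about 20 µL; 0% = negative control wells and 100% = wells with untagged competitor protein; inactives centre near -12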
Sa growth 42C second temp: further read-out of Sa growth 42C, marked with its call; relative growth, %; measured here: growth at 30 °C;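 optical density after 20 h as mean of two plates; 100% = untreated growth and lower means inhibition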
* = called active by the depositor; nt = no result given; & = joins results of further samples.

Each structure is followed by: Sa growth 42C, Sa growth 42C second temp, GIV-Gai inh, HCMV NEC inh
(1) Nc1ncnc2c1c(-c1ccc(Oc3ccccc3)cc1)cn2C1CCCC1
 : nt, nt, 103, -38&-2
(2) COc1cc(N)c(Cl)cc1C(=O)N[C@@H]1CCN(CCCOc2ccc(F)cc2)C[C@@H]1OC
 : 87, 83, nt, -1
(3) CN(C)CCCSc1ccccc1NC(=O)/C=C/c1ccccc1
 : 86&93, 85&78, 101, -52&-20
(4) Cn1ccc2cc3c(cc21)CCN3C(=O)Nc1cccnc1
 : nt, nt, 101, -5&-14
(5) CC1(C)O[C@@H]2C[C@H]3[C@@H]4C[C@H](F)C5=CC(=O)C=C[C@]5(C)[C@@]4(F)[C@@H](O)C[C@]3(C)[C@]2(C(=O)CO)O1
 : 83, 89, 103, -37&-73
(6) CC(C)OCc1cc(CN2CCN(c3ccccc3)CC2)c(O)c2ncccc12
 : 101, 96, 98, -10
(7) COC(=O)N/N=C/c1c[n+]([O-])c2ccccc2[n+]1[O-]
 : 95&95, 81&91, 106, -141&-113
(8) CCCCN(CCCC)CCCOC(=O)c1ccc(N)cc1
 : 95, 85, nt, -46&-20
(9) C=CCN1C[C@H](C(=O)N(CCCN(C)C)C(=O)NCC)C[C@@H]2c3cccc4[nH]cc(c34)C[C@H]21
 : 98, 90, 104, -5
(10) COc1ccc(-c2ccc(CNc3ncn[nH]3)o2)cc1Cl
 : nt, nt, 103, 2
(11) CCOc1ccc2nc(N3CCC(C(=O)Nc4ccccc4CC)CC3)sc2c1
 : 122, 93, 101, -27
(12) Cc1cc(Cl)ccc1OCc1nc2c3ccccc3ncn2n1
 : nt, nt, 104, -13
(13) COc1cc(C2Oc3cc(C4Oc5cc(O)cc(O)c5C(=O)C4O)ccc3OC2CO)ccc1O (centres undefined)
 : 88, 76, 111, -4&-6
(14) CCn1cc(C(=O)O)c(=O)c2cc(F)c(N3CCNC(C)C3)c(F)c21 (centres undefined)
 : -0.6*, -0.2*, 102&103, -60&-2&1&-30
(15) COC(=O)C1=C(C)NC(C)=C(C(=O)OCCN2CCN(C(c3ccccc3)c3ccccc3)CC2)C1c1cccc([N+](=O)[O-])c1 (centres undefined)
 : 92, 79, 105, -33&16&-2&-75
(16) COc1ccccc1CN[C@@H]1CCCN[C@@H]1c1ccccc1
 : nt, nt, 100, -1
(17) O=C(O)Cc1sc(-c2ccccc2)nc1-c1ccc(Cl)cc1
 : 95, 81, 100, -48
(18) CCOC(=O)c1ccc(NC(=O)c2cc(=O)c3ccc(C)c(C)c3o2)cc1
 : 95, 88, 107, -14
(19) c1ccc(-n2cnnn2)cc1
 : 116, 97, 99, 21
(20) CCn1c(C(=O)N2CCCC(C(=O)N3CCc4ccccc4C3)C2)cc2sccc21 (centres undefined)
 : 85, 63, 100, -16
(21) CCC1(O)CC2CN(CCc3c([nH]c4ccccc34)[C@@](C(=O)OC)(c3cc4c(cc3OC)N(C)C3[C@]45CCN4CC=C[C@@](CC)([C@@H](OC(C)=O)[C@]3(O)C(=O)OC)[C@H]45)C2)C1 (some centres undefined)
 : nt, nt, 103, -20
(22) Cc1scc2c1N(C(=O)CN1CCN(C)CC1)c1ccccc1NC2=O
 : 97, 97, 109&103, -10&-5&-16&-8
(23) Cc1nnc(C(=O)Nc2cccc(C(=O)NCCc3c[nH]c4ccc(Cl)cc34)c2)s1
 : nt, nt, 109, -12
(24) CCCOc1ccc2nc(NC(=O)OC)[nH]c2c1
 : 97&91, 91&90, 98, -38&-42
(25) COCCNC(=O)c1ccc2c(c1)nc(C)n2-c1ccc(Br)cc1
 : 103, 68, 102, -17
(26) CCN(CC)CC1CCCCN1CC(=O)N1c2ccccc2C(=O)Nc2cccnc21 (centres undefined)
 : 94, 89, nt, -6&-25
(27) O=C(NC1CCN(CCc2c[nH]c3ccccc23)CC1)c1ccccc1
 : 93, 96, 102, 3
(28) Cc1ccccc1OCC(O)CO (centres undefined)
 : 93, 85, nt, -43&0
(29) COc1ccc(C(=O)c2ccccc2)c(O)c1
 : 90, 85, nt, -9&-7
(30) Cc1ccc(Nc2nc(N)nc(CN3CCC(C(N)=O)CC3)n2)cc1
 : 102, 75, 105, -28
(31) Cc1cc(C)n2c(Nc3ccc(Cl)cc3)c(-c3ccc(O)cc3)nc2n1
 : nt, nt, 149, -18
(32) Cc1ccc(C)c(Nc2nc3nonc3nc2Nc2cccc(C)c2C)c1
 : 33, 10, 101, -17
(33) Cc1c(Cl)cccc1NC(=O)Cn1cc(C(=O)C2CCCCC2)c2ccccc21
 : 78, 86, 101, -22
(34) CCn1ccc(C(=O)Nc2ccccc2C(=O)OC)n1
 : 93, 70, 105, -27
(35) CCOc1ccc(-n2nnc(-c3nc(-c4ccccc4OC)cs3)c2N)cc1
 : nt, nt, 127, 5
(36) CN(C)S(=O)(=O)n1cc(/C=C(\NC(=O)c2ccccc2)C(=O)NCCCn2ccnc2)c2ccccc21
 : 99, 80, 107, -34
(37) O=C(CN1C(=O)c2ccccc2C1=O)Nc1nnc(-c2ccc3c(c2)OCCO3)o1
 : 93, 80, 100, -33
(38) CC[C@@H]1OC(=O)C[C@@H](O)[C@H](C)[C@@H](O[C@@H]2O[C@H](C)[C@@H](O)[C@H](N(C)C)[C@H]2O)[C@@H](CCN2C[C@H](C)C[C@H](C)C2)C[C@@H](C)C(=O)/C=C/C(C)=C\[C@@H]1CO[C@@H]1O[C@H](C)[C@@H](O)[C@@H](OC)[C@H]1OC
 : 0.5*, -0.1*, nt, -41
(39) Cc1cccc(Cc2c(C)nc3c(-c4ccccc4)c(C)[nH]n3c2=O)c1
 : 15, 16, 110, -16
(40) COC(=O)c1ccccc1O
 : 81&93, 85&88, 100, -31&-16

Laid out differently: results already given.
25: COCCNC(=O)c1ccc2c(c1)nc(C)n2-c1ccc(Br)cc1
  Sa growth 42C: 103	Sa growth 42C second temp: 68	GIV-Gai inh: 102	HCMV NEC inh: -17
26: CCN(CC)CC1CCCCN1CC(=O)N1c2ccccc2C(=O)Nc2cccnc21 (centres undefined)
  Sa growth 42C: 94	Sa growth 42C second temp: 89	GIV-Gai inh: nt	HCMV NEC inh: -6&-25
27: O=C(NC1CCN(CCc2c[nH]c3ccccc23)CC1)c1ccccc1
  Sa growth 42C: 93	Sa growth 42C second temp: 96	GIV-Gai inh: 102	HCMV NEC inh: 3

Next section
Each structure is followed by: Sa growth 42C, Sa growth 42C second temp, GIV-Gai inh, HCMV NEC inh
(41) CN[C@@H]1[C@H](O)[C@H](NC)[C@H]2O[C@@]3(O)C(=O)C[C@@H](C)O[C@H]3O[C@@H]2[C@H]1O
 : 83&80, 88&87, 95, 0&-22&-9&-47
(42) CCCOc1ccc(C(=O)OCCN(CC)CC)cc1N
 : 99, 95, nt, -3&3&-19&8&-52
(43) CC(C)NNC(=O)c1ccncc1
 : 88, 84, 97&105, -28&-18&3
(44) Cc1nc2c3ccccc3nc(NNC(=O)CCC(=O)N3CCN(c4ccccc4F)CC3)n2n1
 : 103, 93, 100, -5
(45) CCN(CCCCOC(=O)c1ccc(OC)c(OC)c1)C(C)Cc1ccc(OC)cc1 (centres undefined)
 : 91, 86, nt, -44&3
(46) CNS(=O)(=O)CCc1ccc2[nH]cc(C3CCN(C)CC3)c2c1
 : nt, nt, 106, -23&-30
(47) CN(CC1COc2ccccc2O1)c1ccc(S(=O)(=O)N2CCOCC2)cn1 (centres undefined)
 : 88, 96, nt, -21
(48) COc1ccc(-c2cc(C(F)F)nn2-c2ccc(S(N)(=O)=O)cc2)cc1F
 : 97, 87, nt, -35
(49) CCOC(=O)c1sc(NC(=O)c2c(-c3ccccc3)c(-c3ccccc3)nn(C)c2=O)nc1C
 : 93, 87, 100, -43
(50) Nc1c2ccccc2nc2ccccc12
 : 93, 95, nt, -91
(51) CC(C)n1c(SCC(=O)Nc2ccccc2)nc2ccccc2c1=O
 : 105, 95, nt, -4

Arranged by SMILES length (ascending): 20 of the compounds above.
Each structure is followed by: Sa growth 42C, Sa growth 42C second temp, GIV-Gai inh, HCMV NEC inh
(40) COC(=O)c1ccccc1O
 : 81&93, 85&88, 100, -31&-16
(43) CC(C)NNC(=O)c1ccncc1
 : 88, 84, 97&105, -28&-18&3
(50) Nc1c2ccccc2nc2ccccc12
 : 93, 95, nt, -91
(29) COc1ccc(C(=O)c2ccccc2)c(O)c1
 : 90, 85, nt, -9&-7
(42) CCCOc1ccc(C(=O)OCCN(CC)CC)cc1N
 : 99, 95, nt, -3&3&-19&8&-52
(34) CCn1ccc(C(=O)Nc2ccccc2C(=O)OC)n1
 : 93, 70, 105, -27
(51) CC(C)n1c(SCC(=O)Nc2ccccc2)nc2ccccc2c1=O
 : 105, 95, nt, -4
(32) Cc1ccc(C)c(Nc2nc3nonc3nc2Nc2cccc(C)c2C)c1
 : 33, 10, 101, -17
(46) CNS(=O)(=O)CCc1ccc2[nH]cc(C3CCN(C)CC3)c2c1
 : nt, nt, 106, -23&-30
(35) CCOc1ccc(-n2nnc(-c3nc(-c4ccccc4OC)cs3)c2N)cc1
 : nt, nt, 127, 5
(47) CN(CC1COc2ccccc2O1)c1ccc(S(=O)(=O)N2CCOCC2)cn1 (centres undefined)
 : 88, 96, nt, -21
(39) Cc1cccc(Cc2c(C)nc3c(-c4ccccc4)c(C)[nH]n3c2=O)c1
 : 15, 16, 110, -16
(45) CCN(CCCCOC(=O)c1ccc(OC)c(OC)c1)C(C)Cc1ccc(OC)cc1 (centres undefined)
 : 91, 86, nt, -44&3
(48) COc1ccc(-c2cc(C(F)F)nn2-c2ccc(S(N)(=O)=O)cc2)cc1F
 : 97, 87, nt, -35
(37) O=C(CN1C(=O)c2ccccc2C1=O)Nc1nnc(-c2ccc3c(c2)OCCO3)o1
 : 93, 80, 100, -33
(44) Cc1nc2c3ccccc3nc(NNC(=O)CCC(=O)N3CCN(c4ccccc4F)CC3)n2n1
 : 103, 93, 100, -5
(49) CCOC(=O)c1sc(NC(=O)c2c(-c3ccccc3)c(-c3ccccc3)nn(C)c2=O)nc1C
 : 93, 87, 100, -43
(36) CN(C)S(=O)(=O)n1cc(/C=C(\NC(=O)c2ccccc2)C(=O)NCCCn2ccnc2)c2ccccc21
 : 99, 80, 107, -34
(41) CN[C@@H]1[C@H](O)[C@H](NC)[C@H]2O[C@@]3(O)C(=O)C[C@@H](C)O[C@H]3O[C@@H]2[C@H]1O
 : 83&80, 88&87, 95, 0&-22&-9&-47
(38) CC[C@@H]1OC(=O)C[C@@H](O)[C@H](C)[C@@H](O[C@@H]2O[C@H](C)[C@@H](O)[C@H](N(C)C)[C@H]2O)[C@@H](CCN2C[C@H](C)C[C@H](C)C2)C[C@@H](C)C(=O)/C=C/C(C)=C\[C@@H]1CO[C@@H]1O[C@H](C)[C@@H](O)[C@@H](OC)[C@H]1OC
 : 0.5*, -0.1*, nt, -41

Not all compounds are listed (hit frequency here may not be typical).
